High-throughput results from PubChem.
ugtP null kill: growth inhibition of ugtP-null S. aureus, primary screen, RN4220 ugtP deletion, OD600 | hit rate 0.54% among 330,000 | growth inhibition, % (concentration not given with the values) | AID 1259309, 2017 | 16 h; some inactives read as strong as hits;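 active means z-score under -3 and OD600 up to 0.15 on both plates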;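 further: plate controls were untreated wells for no effect and antibiotic for full effect; wells of about 80 µL received 100 nL stock; the first replicate is given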
RN4220 kill: growth inhibition of S. aureus RN4220, primary screen, OD600; 16 h; hit rate 0.33% among 330,000; inhibition, % (test concentration not listed);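 active means z-score of -3 or lower and OD600 up to 0.18 on both plates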;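 further: plate controls were untreated cells for no effect and reference antibiotic for full effect; stock transfer was 100 nL into about 80 µL; one replicate is shown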
Autofluor counter: counter-screen for toxin protease inhibitors: compound fluorescence. compound autofluorescence counterscreen, microsphere flow cytometry; hits give high values. fluorescence intensity (concentration not given with the values). hit rate 3.1% among 360,000;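 active means at least 3 SD above the mean of all compounds, about 16000 in these data; inconclusive means too few beads counted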;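 further: 100 nL of 1 mM stock went into each well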
PrP UTR inh: inhibition of PrP 5' UTR reporter expression. inhibition, % (test concentration not listed). cell-based PrP 5' UTR mRNA reporter, plate reader. AID 488862, 2010. hit rate 0.35% among 340,000;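 active means every replicate at 50% or more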;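 further: 0 = median of the neutral control wells; tested in H4 reporter cells; numbers are from one replicate; inactives centre near -14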
BJeLR viability: MLPCN primary cell-based screen for lethality selective to Ras in HRASV12 cells; BJeLR (HRASV12) viability, CellTiter-Glo ATP luminescence, 48 h; reference of the scale not given here; inhibition, % (test concentration not listed); hit rate 0.17% among 300,000; AID 1554, 2009;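 active means replicate mean above 50%; inconclusive means above 50% but judged a plate artefact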;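 further: 50 nL library stock added to about 25 µL; numbers are from one replicate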
Mtb hypoxia rep: PubChem AID 1159583 | fluorescence inhibition, % (no concentration beside the values) | M. tuberculosis hypoxia-regulated fluorescent reporter, fluorescence | hit rate 0.1% among 300,000;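 active means 35 to 45% if threefold the growth effect, above 45% if 1.5-fold the growth effect; inactive means the rest, general growth blockers included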;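 further: wells of about 50 µL received 100 nL stock; 0% = vehicle wells and 100% = reference inhibitor wells; whole bacteria with a GFP reporter of the hypoxia response; strong numbers were not always called active; many hits fall short of the cut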
Mtb hypoxia rep growth: also measured in Mtb hypoxia rep; calls as there; growth inhibition, %; measured here: M. tuberculosis growth (absorbance);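 0% = vehicle and 100% = reference antibiotic; read after six days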
* = called active by the depositor; ? = inconclusive; · = not tested or not shown.

SMILES	ugtP null kill	RN4220 kill	Autofluor counter	PrP UTR inh	BJeLR viability	Mtb hypoxia rep	Mtb hypoxia rep growth
NC(=O)c1c(NC(=O)c2ccc(F)cc2)sc2c1CCC2	-2	4.7	4206	-81	2	13	5
CCCCNC(=O)[C@@](CC)(ONc1ccccc1C(F)(F)F)c1cccc2ccccc12	3	-7.3	3873	-7	·	6	-2
C/C(=N\NC(=O)COc1ccccc1-c1ccccc1)c1ccccn1	·	·	3268	21	19	·	·
O=C(CNC(=O)c1ccc(Br)cc1)NCC(=O)OCC(=O)c1ccc(F)cc1	8	-1.1	5201	-22	·	6	7
CNC(=S)Nc1cccc(C(=O)O)c1	8	6.1	4213	-50	-9	18	5
Cc1[nH]c2ccc(F)cc2c1CCN(Cc1cccnc1)C(=S)NC(C)(C)C	1	3.1	3803	-16	-4	-1	3
Cc1ccccc1CC(=O)NCC1CCCCC1	7	2.1	4184	-30	3	25	17
CN1/C(=C/C(=O)C2CCC2)Sc2ccccc21	-13	22	12718	-44	7	21	20
N#CC1(Nc2ccc3ccccc3c2)CCCC1	2	0.1	4422	-11	·	14	4
CNc1nc(Cl)nc2c1ncn2-c1ccccc1	10	4.2	4062	-7	·	4	9
O=C(O)c1ccc(CSc2nnc(-c3ccc(Cl)cc3)o2)cc1	6	12	3342	-15	-8	8	0
BrC(C=NNc1nc(N2CCOCC2)nc(N2CCOCC2)n1)=Cc1ccccc1	-19	2.9	·	·	·	-10	-1
CC12CCC(=O)C=C1CCC1C2CCC2(C)C(C(=O)CO)CC(O)C12 (centres undefined)	2	1.9	3875	-25	·	10	2
COC(=O)c1sccc1NC(=O)c1cc(OC)cc(OC)c1	-17	-1.8	3777	-11	-3	16	7
CC(=O)Cn1c(C(F)(F)F)nc2ccccc21	-2	4.5	2154	-19	2	2	0
N#CC1=C(N)C2=C(N3CCCCC3)CCCC2C1(C#N)C#N (centres undefined)	7	3.4	3834	-1	-10	10	1
COc1cccc(C(=O)OCC(=O)NC(=O)NC2CCCC2)c1O	2	2.3	4187	-12	0	13	-4
Cc1ccc(NC(=O)CN2C(=O)CN(C)C2=O)cc1S(=O)(=O)N1CCCCC1	6	6.5	2972	-15	1	-1	2
CCN(CC)CC(=O)Nc1c2c(nc3ccccc13)N(C)CC2	9	2.1	3835	-31	3	10	-4
O=C(O)CCCC(=O)Nc1ccccc1C(=O)N1CCOCC1	0	1.6	3566	-2	-3	3	-1
CC1CCCCC1NC(=O)CO/N=C/c1ccccc1OC(F)F (centres undefined)	·	·	2234	-29	-9	·	·
COc1ccc(-c2ccc([C@H]3[C@@H]4C=CCC[C@@]4(C)C(=O)N3Cc3ccccc3)c(F)c2)cc1	·	·	3028	-6	-2	·	·
COc1cccc(C=NNC(=O)C2CC2)c1	-1	1.5	4763	-21	·	21	19
CCC(NC(=S)NCc1ccc(F)cc1)c1ccc(C(C)C)cc1 (centres undefined)	-21	-5.0	5499	-23	1	0	4

In another format: 6 of the compounds above.
Structure,ugtP null kill,RN4220 kill,Autofluor counter,PrP UTR inh,BJeLR viability,Mtb hypoxia rep,Mtb hypoxia rep growth
CC(=O)Cn1c(C(F)(F)F)nc2ccccc21,-2,4.5,2154,-19,2,2,0
COC(=O)c1sccc1NC(=O)c1cc(OC)cc(OC)c1,-17,-1.8,3777,-11,-3,16,7
N#CC1=C(N)C2=C(N3CCCCC3)CCCC2C1(C#N)C#N (centres undefined),7,3.4,3834,-1,-10,10,1
Cc1ccc(NC(=O)CN2C(=O)CN(C)C2=O)cc1S(=O)(=O)N1CCCCC1,6,6.5,2972,-15,1,-1,2
COc1cccc(C(=O)OCC(=O)NC(=O)NC2CCCC2)c1O,2,2.3,4187,-12,0,13,-4
O=C(O)CCCC(=O)Nc1ccccc1C(=O)N1CCOCC1,0,1.6,3566,-2,-3,3,-1

Additional entries:
SMILES	ugtP null kill	RN4220 kill	Autofluor counter	PrP UTR inh	BJeLR viability	Mtb hypoxia rep	Mtb hypoxia rep growth
NC(=O)C1CCN(CCCNC2CC(=O)N(Cc3ccc(N4CCCC4=O)cc3)C2=O)CC1 (centres undefined)	7	4.3	5986	-12	-8	·	·
COC(=O)C1=C(C)NC(C)=C(C(=O)OC)C1C1CC=CCC1 (centres undefined)	-5	4.5	4242	-22	3	·	·
O=C(CC1SC(=O)N(c2ccccc2)C1=O)Nc1ccccc1 (centres undefined)	-8	-0.6	21831*	-12	8	-9	6
CN(C)N1C(=O)CC(NNC(=O)c2ccncc2)C1=O (centres undefined)	5	2.6	2371	-6	-7	13	12
CCCC(=O)Nc1ccc(NC(=O)C23CC4CC(CC(C4)C2)C3)cn1	-7	-2.6	4686	-13	6	·	·
O=c1c(=Cc2cc([N+](=O)[O-])cc([N+](=O)[O-])c2O)sc2nc3ccccc3n12	14	2.8	·	·	·	10	2
CCOc1ccc2nc(SCC(=O)NC(=O)NCc3ccco3)sc2c1	-4	2.8	2969	-10	0	·	·
CCOC(=O)c1sc2nc(SCC(=O)NCc3ccco3)n(Cc3ccccc3)c(=O)c2c1C	5	-2.4	2407	-7	-2	2	-5
O=C(C1=NN[C@@H]2C(=O)N(c3ccccc3C(F)(F)F)C(=O)[C@H]12)c1cnccn1	10	4.1	5345	-28	0	2	4
Cc1cccc(N2CCN(C(c3ccc(N(C)C)cc3)c3nnnn3C(C)(C)C)CC2)c1C (centres undefined)	7	2.1	3544	-11	7	·	·
C#CCn1c(CCNC(=O)c2ccco2)nc2ccccc21	·	·	4414	3	-8	·	·
Cc1ccc(Nc2nc3nonc3nc2N(C)C)cc1	7	-7.1	4052	-15	3	·	·
C=CCn1c(Oc2cccc(C)c2)nc2c1c(=O)n(C)c(=O)n2C	6	3.8	4390	45	0	8	4
O=C(O)c1ccccc1-c1ccccc1C(=O)Nc1ccc(OC(F)(F)F)cc1	-1	3.3	2812	4	-1	·	·
COc1ccc(N2CCN(C(=O)CCNS(=O)(=O)c3cc(Br)cnc3N)CC2)cc1	0	4.3	5688	-25	0	-10	0
Cc1c(C(=O)NCc2cccnc2)oc2ccc(S(=O)(=O)N3CC(C)CC(C)C3)cc12 (centres undefined)	-17	3.4	5819	-7	-3	-6	7
CC(=O)c1c(O)c2cccc3c2n(c1=O)CCC3	3	3.3	4032	-18	2	12	3
O=C(COC(=O)/C=C/c1cccc([N+](=O)[O-])c1)NCC1CCCO1 (centres undefined)	18	4.0	4230	-63	9	9	1
C/C=C(/C)C(=O)Nc1cccc(C2=NOC3(C2)C[C@@H](C(N)=O)N(C(=O)C2(C)CC2)C3)c1 (some centres undefined)	·	·	4166	-32	7	·	·
CCn1c(NC(=O)C(C)C)c(-c2cccs2)c(=O)c2ccccc21	1	4.7	5550	-14	-5	17	4
O=C(O)CC(SCC(=O)Nc1ccccc1)C(=O)O (centres undefined)	10	6.7	4413	-15	·	10	1
CCOc1cc(CNCCc2cccc(F)c2)ccc1OC	1	2.0	3409	-5	-4	11	-3
COc1ccc(S(=O)(=O)N2CCCCC2)cc1NC(=O)C1CC1C (centres undefined)	0	0.3	4747	·	·	7	9
COc1cc2cc(Br)cc(Br)c2nc1C	11	8.5	2937	-6	7	·	·
COC(=O)c1sc2cc(C(F)(F)F)cnc2c1-c1cccnc1	3	-1.8	?	-18	-3	-6	-10
Cn1c(-c2cccc(OCc3ccccc3)c2)nc2c1c(=O)[nH]c(=O)n2Cc1ccccc1	-6	1.1	2957	-8	·	·	·
O=C(CN1CCN(C(=O)c2cccc(S(=O)(=O)N3CCCC3)c2)CC1)Nc1ccccc1Cl	3	1.1	?	-13	·	4	4
COc1ccc(OC)c(C=NN2CCN(c3ccc(Cl)cc3)CC2)c1	-7	1.1	·	·	·	13	1
COC(=O)C(C(=O)OC)c1ccc(NC(=O)c2cccc(Cl)c2)cc1	-11	0.7	4322	-44	-12	-7	11
Cc1ccc(S(=O)(=O)CCC(=O)OC(C)C(=O)N2CCc3ccccc32)cc1 (centres undefined)	5	0.9	4663	-12	12	7	0
CCOC(=O)C1(CC)NC(c2cccc(F)c2)C2C(=O)N(CC)C(=O)C21 (centres undefined)	4	3.1	9743	-4	12	-82	-20
COc1cc(C)c(CN2CCCCC2CO)cc1C (centres undefined)	-2	1.9	11154	2	-4	6	10
COc1ccccc1OCCSc1ncnc2nc[nH]c12	0	-9.8	3487	-21	-1	16	2
COc1ccc(Cl)cc1C(=O)Nc1ccc2c(c1)OCCO2	4	2.8	3148	-77	-2	-7	13
COc1ccc(CC(=O)NNc2ncnc3c2cnn3C)cc1OC	-1	-1.8	1984	-8	-2	-3	-3
O=C1CC(c2ccccc2)CC(O)=C1C=Nc1ccc(O)cc1 (centres undefined)	2	5.7	4355	-27	9	-4	-10
O=C(Nc1ccccc1-c1ccccc1)c1cccc([N+](=O)[O-])c1	-7	0.2	9629	-20	11	8	9
COc1ccc(C2NS(=O)(=O)OCC2C)cc1 (centres undefined)	·	·	4072	-6	-1	·	·
Brc1ccc(N=CC=CC=CNc2ccc(Br)cc2)cc1	1	4.2	·	·	·	9	8
COc1ccc(S(=O)(=O)NCCSCc2ccc(Cl)cc2)cc1NC(C)=O	2	-1.5	?	-4	·	0	6
O=C(NC1CCCCC1)N(Cc1cc2cc3c(cc2[nH]c1=O)OCCO3)CC1CCCO1 (centres undefined)	-12	-8.7	18971*	-36	6	-15	4
CCOc1ccc(C(=O)CCC(=O)NN2C(=O)NC3(CCCCC3)C2=O)cc1	-5	-2.9	?	-3	·	-11	0
CC(OC(=O)C12CCC(=O)N1c1ccccc1S2)C(=O)Nc1cccc(Cl)c1 (centres undefined)	0	2.2	7394	-18	·	3	9
O=C1CSC(c2ccc(F)cc2)N1c1nc2ccccc2s1 (centres undefined)	2	4.4	10574	-25	0	4	3
Cc1ccc(OCC(=O)NN=Cc2cn(Cc3ccccc3)c3ccccc23)cc1C	-10	1.2	·	·	·	13	11
COc1cccc(CNC(=O)C(=O)NCCC2CCCCN2S(=O)(=O)c2ccccc2)c1 (centres undefined)	6	6.7	?	2	2	2	3
COc1cccc2cc(C(=O)N3CCN(c4ncccn4)CC3)c(=O)oc12	1	-0.5	8107	7	7	-9	0
CCc1ccc(NC(=S)NCC2CCCN2CC)cc1 (centres undefined)	4	-1.1	4223	21	-1	-4	2
CCCCNc1nc(=S)[nH]c2cc(OC)c(OC)cc12	4	7.0	4095	-9	-7	4	7
COc1ccc(NC(=O)c2ccc(CN3CCN(c4ccccc4)CC3)cc2)cc1	2	-1.6	2389	-23	1	·	·
CC(C)(C)N1CC(c2nc3ccccc3n2CCOc2ccccc2)CC1=O (centres undefined)	-8	4.5	3422	0	5	1	6
O=C1NC(=O)C(CCc2ccncc2)(Cc2ccc(OCc3ccccc3)cc2)C(=O)N1	1	3.6	4550	-16	1	9	0
CCOc1ccc(-c2cc(C(=O)NN)[nH]n2)cc1	8	3.9	2460	-14	6	7	2
Oc1ccc(/C=N/Nc2nccnc2Cl)c(O)c1	·	·	8702	-1	68*	·	·
CCn1cc(C(=O)NCC(C)C)c(=O)c2cc(F)c(N3CCN(C)CC3)cc21	32	6.4	5598	·	-5	15	5
c1ccc(-c2ccccc2OCCCCN2CCCCCC2)cc1	8	1.9	2662	-120	1	17	11
O=C(CCc1ccc(S(=O)(=O)N2CCOCC2)cc1)OCc1nc2ccccc2s1	6	-2.3	4665	-7	1	·	·
O=C(COC(=O)c1ccc(Cl)s1)c1cc2ccccc2o1	-7	10	20753*	-18	9	8	8
CC(=O)OC1C2CCC3[C@@](C)(O)C4C5OC5C(C)(C)[C@@]4(O)C(OC(C)=O)C[C@@]13C[C@@]2(C)O (some centres undefined)	-2	5.5	·	·	·	6	8
CCCn1nnc(NC(=O)c2ccc(Cl)cc2Cl)n1	-2	-4.3	4217	-55	5	·	·

New compounds follow
SMILES	ugtP null kill	RN4220 kill	Autofluor counter	PrP UTR inh	BJeLR viability	Mtb hypoxia rep	Mtb hypoxia rep growth
CCOC(=O)N1CCN(CCC(=O)Nc2cc(C)ccc2OC)CC1	1	3.2	4863	-8	5	0	-3
COc1cc(C2CC(c3c(C)cc(C)[nH]c3=O)=NN2c2ccccc2F)cc(OC)c1OC (centres undefined)	8	4.9	3731	4	-3	0	17
COc1ccc(/C=C(\NC(=O)c2ccco2)C(=O)N2CCCCC2)cc1	8	2.1	3887	-33	-7	0	-4
Cc1cc(=O)[nH]c2cc(Cl)ccc12	2	1.4	5943	-12	2	18	7
C/C(=N/NC(=O)CNC(=O)c1ccccc1)c1ccc(C)cc1	·	·	2542	-9	-9	·	·

Rows were taken by chance; 3.9% or so of the library scored in one or more.
